# Screening results deposited in PubChem by several laboratories.
# Beta cell apopt: beta cell apoptosis inhibition; protection from apoptosis, % (no concentration beside the values); INS-1E cytokine-induced death, ATP luminescence, 48 h; percent of positive-control rescue, neutral wells zero; 300,000 compounds, 0.8% hits;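 active means all replicates at 75% or more, or half of them and the mean; inconclusive means half reach 75% but not the mean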;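 further: 0% = cytokine-treated negative control wells and 100% = positive control rescue; higher means more ATP so stronger rescue from cytokine killing; wells of about 40 µL received 100 nL stock; the first replicate is given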
# rRNA inh HTS: inhibits bacterial ribosomal RNA function over humanized ribosomes; E. coli WT GFP vs humanized-ribosome RFP mutants, fluorescence, 24 h; active compounds read low; DMSO median 0, no signal -100; GFP signal change (wild-type ribosome), % (test concentration not listed); 350,000 compounds, 1.6% hits; AID 720706;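 active means significant combined selectivity score with lowered wild-type GFP, culture density cut under 30%, mutant RFP and density less affected; inactive means any of these conditions unmet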; further: one replicate is shown; some compounds called inactive have numbers as strong as hits
# T cruzi repl: blocks replication of Trypanosoma cruzi; inhibition, % (no concentration beside the values); T. cruzi beta-gal in NIH3T3, luminescence, 90 h; 300,000 compounds, 1.4% hits;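 active means mean inhibition across valid replicates above about 55%, limit read from the data; inconclusive means mean below that limit but half or more replicates reach it; inactive means mean below it, under half of replicates reach it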;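 further: signal also drops with host cell toxicity which is not excluded here; 0% = plate median of DMSO wells and 100% = zero luminescence signal; higher percent means less beta-gal luminescence so fewer parasites; stock transfer was 50 nL into about 50 µL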
# Calb FLC: C. albicans growth modulation with fluconazole; C. albicans CaCi-2 (fluconazole-resistant clinical isolate) + fluconazole, Alamar Blue growth, 48 h; growth inhibition, % (test concentration not listed); 300,000 compounds, 0.57% hits; AID 1979;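 active means most replicates above 75%; inconclusive means exactly half above 75%; inactive means most below 75%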;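 further: all wells also contain fluconazole at 8 µg/ml as a sub-toxic cotreatment; 0% = median of DMSO wells and 100% = median of geldanamycin control wells; wells of about 8 µL received 7.5 nL stock; the first replicate is given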
# Beta2AR agonist: activates human beta-2 adrenergic receptor causing internalization; 340,000 compounds, 0.43% hits; P07550; response, % (test concentration not listed); Am2.2-beta2AR cells, FAP receptor internalization, flow cytometry; reference of the scale not given here;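 active means response above a set limit, near 3 SD of response in nonfluorescent compounds, cut at about 42% in these data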;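 further: stock transfer was 100 nL into about 11 µL; a reference agonist was the positive control; negative values mostly stem from fluorescent compounds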
# ALR inh: human ALR oxidase inhibition via reduced H2O2; P55789; purified ALR, DTT oxidation, H2O2 HRP-luminol luminescence; inhibition, % (test concentration not listed); 290,000 compounds, 3.8% hits; AID 485317;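 active means mean and each replicate at 75% or more; inconclusive means only one of the two met; inactive means neither met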;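 further: stock transfer was 7.5 nL into about 7.5 µL; 0% = neutral wells and 100% = wells with inactivated enzyme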
# LANA-H2B inh: blocks KSHV LANA binding to histone H2A/H2B | Q9QR71 | cell-free LANA-H2A/H2B peptide, fluorescence polarization | inhibition, % (concentration not given with the values) | 320,000 compounds, 0.6% hits; in the data active means inhibition mostly above about 10%, no sharp cut-off; inactive means mostly below about 6.7%;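 further: stock transfer was 7.5 nL into about 10 µL; 0% = median of vehicle wells and 100% = median of positive control wells; one replicate is shown; the record names a cut of 25% in any replicate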
# Target sequence (Q9QR71 whole entry, looked up): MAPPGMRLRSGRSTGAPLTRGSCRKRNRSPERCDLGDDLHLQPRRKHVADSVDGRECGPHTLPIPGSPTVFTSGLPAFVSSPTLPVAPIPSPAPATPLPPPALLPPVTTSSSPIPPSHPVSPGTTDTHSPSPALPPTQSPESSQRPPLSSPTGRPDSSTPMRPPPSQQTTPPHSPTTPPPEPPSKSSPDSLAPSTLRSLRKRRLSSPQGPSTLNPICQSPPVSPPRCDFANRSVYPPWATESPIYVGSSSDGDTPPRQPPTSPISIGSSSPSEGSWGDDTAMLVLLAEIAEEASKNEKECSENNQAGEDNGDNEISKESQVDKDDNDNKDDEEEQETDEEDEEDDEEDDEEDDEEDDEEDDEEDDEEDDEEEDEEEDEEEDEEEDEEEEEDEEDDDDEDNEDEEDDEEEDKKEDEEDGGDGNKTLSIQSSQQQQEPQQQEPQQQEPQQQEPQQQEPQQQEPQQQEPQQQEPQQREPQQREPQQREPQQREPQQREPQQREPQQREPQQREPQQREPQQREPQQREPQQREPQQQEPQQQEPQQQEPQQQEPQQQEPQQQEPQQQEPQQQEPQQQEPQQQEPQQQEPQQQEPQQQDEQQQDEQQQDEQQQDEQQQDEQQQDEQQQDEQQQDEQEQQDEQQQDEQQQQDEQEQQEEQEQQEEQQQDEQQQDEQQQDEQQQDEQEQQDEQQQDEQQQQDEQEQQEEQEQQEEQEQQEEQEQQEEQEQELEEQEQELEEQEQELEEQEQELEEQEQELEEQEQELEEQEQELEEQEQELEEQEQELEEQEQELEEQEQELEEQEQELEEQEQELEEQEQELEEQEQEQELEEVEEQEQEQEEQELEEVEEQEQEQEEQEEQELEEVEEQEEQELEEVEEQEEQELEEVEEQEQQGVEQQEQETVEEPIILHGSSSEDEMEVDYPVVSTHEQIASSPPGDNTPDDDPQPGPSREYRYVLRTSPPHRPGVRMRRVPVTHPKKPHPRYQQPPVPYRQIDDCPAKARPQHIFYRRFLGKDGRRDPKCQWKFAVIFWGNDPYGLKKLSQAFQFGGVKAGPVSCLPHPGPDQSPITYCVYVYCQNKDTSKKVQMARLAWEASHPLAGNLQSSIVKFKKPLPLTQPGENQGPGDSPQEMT
# A1 inh: inhibitors of the anti-apoptotic protein A1, read as caspase activation | AID 2462 | caspase activation, % (test concentration not listed) | MEF A1-2A-BIM cells, Caspase-Glo 3/7 luminescence, 3 h; percent of clofoctol response, vehicle zero | 330,000 compounds, 0.066% hits;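 active means over half of replicate activation scores above 10%, or exactly half above 10 with the replicate mean above 10; inconclusive means replicate mean below 10 yet half the replicates above 10; inactive means over half of replicates below 10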;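 further: wells of about 30 µL received 50 nL stock; many hits fall short of the cut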
# rRNA inh HTS OD600: further read-out of rRNA inh HTS, marked with its call; OD600 change, %; measured here: OD600 growth;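 optical density of the mix in the first replicate; 0 = DMSO median and -100 = no signal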
# rRNA inh HTS RFP: second read-out of rRNA inh HTS, no call of its own (marks repeat the call); RFP signal change, %; measured here: RFP humanized mutant strains;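 first replicate; 0 = DMSO median and -100 = no signal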
# The depositor's hits bear a star; ? = inconclusive; . = no result given; & = joins results of further samples. An excerpt; count on the stated rates, not on these rows.
No.	molecule	rRNA inh HTS RFP	rRNA inh HTS	T cruzi repl	Beta2AR agonist	LANA-H2B inh	rRNA inh HTS OD600	Beta cell apopt	A1 inh	Calb FLC	ALR inh
1	Cc1ccc2cc(C(c3nnnn3C3CCCC3)N3CCN(c4ccc(F)cc4)CC3)c(=O)[nH]c2c1 (stereo not drawn)	.	.	-14	4	-0.8	.	-13	0.1	?	-8
2	Cc1cc(C)cc(NC(=O)COc2coc(CN3CCc4ccccc43)cc2=O)c1	3.2	-4	9	0	-4.3	2	11	-0.2	-1	6
3	CCOc1ccccc1/C=N/NC(=O)CNC(=O)c1cccs1	0.6	12	2	6	5.2	6	-4	0.8	2	-28
4	COc1ccc(N(CC(=O)NC(C)(C)C)C(=O)CCC(=O)Nc2nccs2)c(OC)c1	2.2	2	8	7	-1.2	-1	-8	0.3	2	15
5	CC(=O)N1CCN(Cc2nc3scc(-c4ccccc4)c3c(=O)[nH]2)CC1	0.3	16	0	-6	0.0	2	-4	0.8	7	.
6	CCC(Cc1ccccc1)NC(=O)C1CCN(c2nn3c(=O)cc(C)nc3s2)CC1 (stereo not drawn)	4.5	3	7	-7	1.8	5	2	-0.1	-5	.
7	COCCC(=O)N1CCC(Oc2ccc(C(=O)NCCSC)cc2)CC1	1.2	18	-14	2	-3.8	12	.	0.7	19	0
8	Cc1nn(CC(=O)NCCCN2CCCCC2C)c(=O)c2cccn12 (stereo not drawn)	-0.7	5	13	-8	-2.2	9	-4	-0.3	0	-11
9	O=C(O)c1cc([N+](=O)[O-])ccc1Nc1ccccc1	-7.6*	-34*	-15	2	4.0	-27*	0	-0.6	-2	9
10	COc1ccc(C(=O)CC(=O)c2ccccc2O)cc1	-13	-48	3	9	-4.6	-75	-1	-3.9	-11	1
11	C#Cc1ccc2c(c1)COc1c3ccccc3nn1-2	-27	-51	0	-8	-1.4	-72	15	-6.8	8	17
12	CC12CC(NC(=O)N1c1cccc(C(=O)N3CCCCC3)c1)c1ccccc1O2 (stereo not drawn)	-0.8	5	-1	7	2.6	3	3	-0.1	8	1
13	CCOc1ccc(S(=O)(=O)N2CCCC(C(=O)NCc3ccccn3)C2)cc1 (stereo not drawn)	0.0	-3	6	-7	-1.3	8	-2	0.2	-1	3
14	Cc1ccc(NS(=O)(=O)c2ccc(OCC(=O)Nc3cccc([N+](=O)[O-])c3)c(C)c2)cc1	.	.	17	17	1.0	.	-3	0.7	-1	-6
15	Cc1cc(-n2c(C)cc(C(=O)CSc3[nH]c(=O)cc(C(F)(F)F)c3C#N)c2C)no1	2.9	-3	.	4	-1.3	6	-5	-0.4	.	49
16	C[C@@H]1CN([C@@H](C)CO)C(=O)c2cccc(NS(C)(=O)=O)c2O[C@H]1CN(C)CC1CCCCC1	-1.4&1.1	4&7	.	1	-4.0	-3&16	0	-0.1	.	1
17	CC(CNC(=O)c1ccc(NC2=NC3CS(=O)(=O)CC3S2)cc1)c1ccccc1 (stereo not drawn)	-3.4	-4	-8	5	1.7	7	-5	.	-4	-22
18	Cc1nc2nc[nH]c2cc1Br	.	.	-8	-4	-0.1	.	-8	0.7	3	-5
19	COc1ccc(Cl)cc1S(=O)(=O)N1CCC(C(=O)NC2CCCC2)CC1	0.4	-1	12	4	-2.7	-1	0	0.3	-3	0
20	Cc1cc(C(=O)NN=Cc2ccc(OC(=O)c3ccco3)cc2)c(C)o1	4.2	1	.	4	-6.3	12	-2	-6.5	.	.
21	Cc1ccccc1OCC(=O)N/N=C/c1ccc([N+](=O)[O-])o1	2.8	9	61*	2	-1.7	14	7	-0.2	30	-112
22	O=C1CCC([N+](=O)[O-])C(c2ccc3c(c2)OCO3)N1 (stereo not drawn)	2.7	28	-19	6	0.6	20	-4	1.3	-3	-23
23	CCO[C@H]1OC(C(=O)Nc2ccccc2)=C[C@@H](c2ccc(C(F)(F)F)cc2)[C@@H]1CCCO	22	-14	35	-4	-2.7	-24	5	-0.5	7	-8
24	Cc1cc(Br)ccc1OCC(=O)NNC(=O)C(=O)Nc1ccccc1	1.9	14	-6	1	-1.6	11	-1	1.0	89*	-21
25	CN(C(=O)COC(=O)C(C)(C)Oc1ccc(Cl)cc1)c1c(N)n(Cc2ccccc2)c(=O)[nH]c1=O	-2.0	0	-19	11	-10	-1	0	0.5	17	1
26	CCCn1c(=O)c2ccccc2n2c(=S)[nH]nc12	-2.2	5	3	-1	2.1	9	-2	0.3	5	42
27	NC(=O)C1CCN(c2oc(/C=C/c3ccccc3)nc2S(=O)(=O)c2ccccc2)CC1	0.3	1	5	3	-15	0	-7	-0.6	-15	21
28	O=C(O)CC1C(=O)NCCN1CCCc1ccccc1 (stereo not drawn)	4.0	10	-11	3	-4.9	11	-8	0.5	-9	-8
29	COc1ccccc1-n1c(SCC(=O)NC(C)(C)C)nnc1-c1ccco1	.	.	3	-39	6.7	.	8	0.4	42	-2
30	Cc1cc(NS(=O)(=O)c2ccc(NC(=O)c3cnc4scc(C)n4c3=O)cc2)nc(C)n1	-5.6	-4	2	-2	1.2	-13	3	-2.3	0	-5
31	CCCCCCOC(=O)c1ccccc1NC(=O)/C=C/C(=O)O	.	.	4	4	-4.5	.	-3	0.3	12	11
32	Oc1ccc2[nH]cnc2c1CN1CCCCC1	.	.	-3	1	4.6	.	-3	0.3	-6	18
33	Cc1ccc(C(=O)NCCCNC(=O)COc2ccc(Cl)c(C)c2)cn1	-1.4	0	-1	-2	.	-2	-6	1.2	-4	.
34	COc1ccc(C(=O)N(C)c2c(C)n(C)n(-c3ccccc3)c2=O)cc1OC	-0.7	15	-15	-2	-1.0	14	-12	-0.6	4	3
35	COc1ccccc1S(=O)(=O)c1c(C)cc(C)[nH]c1=O	0.0	12	-10	-3	-0.6	19	-4	0.3	-7	.
36	NC(=S)Nc1ccc2c(c1)OCO2	-1.7	13	-4	-2	0.8	7	-4	0.7	20	-5
37	O=C(COc1ccc2ccccc2c1)NNC(=O)C(=O)Nc1ccccc1	-2.0	2	-8	-7	1.2	-1	21	-0.3	-10	.
38	Cc1ccc(S(=O)(=O)/N=C(/c2ccccc2)N(C)C)c(C)c1	0.9	5	-8	-2	-4.4	7	-7	-0.4	9	1
39	Clc1ccc(Oc2nc(N3CCOCC3)nc(N3CCOCC3)n2)cc1	.	.	17	-4	11	.	-8	-0.1	-16	1
40	COc1ccc(CSc2ncn[nH]2)cc1[N+](=O)[O-]	.	.	-2	-1	0.7	.	-2	0.1	25	-5
41	CN(C)C(=O)c1c(NC(=O)c2ccco2)sc2c1CCCCC2	.	.	-12	-4	0.1	.	-4	1.7	-2	25
42	COc1ccccc1N1CCN(c2ccc(Cl)nn2)CC1	0.2	9	4	-6	1.7	22	-3	0.7	2	-12
43	O=C(Nc1ccccc1)OCCOc1ccccc1Br	2.2	17	-13	-10	-5.9	16	2	-0.1	-7	3
44	CCN(C(=O)COC(=O)c1c(-c2ccccc2)noc1C)C1CCS(=O)(=O)C1 (stereo not drawn)	.	.	-5	-6	-1.0	.	-13	0.1	-4	-10
45	O=C(NCc1nnc2c(C(F)(F)F)cc(Cl)cn12)c1ccc2c(c1)OCO2	1.7	0	2	-15	1.5	6	-1	0.4	.	-2
46	Nc1nccnc1C(=O)OCC(=O)NCCc1ccc(Cl)cc1	.	.	.	-6	1.6	.	-7	2.3	.	.
47	CC(C)(C)OC(=O)C[C@H]1C/C=C\C[C@@H](CC(=O)N(CCO)Cc2ccccc2)C(=O)N[C@@H](Cc2ccccc2)COC1=O	-0.3	-9	.	-3	-3.0	-18	-5	0.2	.	5
48	CC(Sc1nc2ccccc2s1)C(=O)Nc1nnc(C(C)C)s1 (stereo not drawn)	.	.	-9	-1	1.8	.	-3	-0.3	14	5
49	O=C(CSc1nn(-c2ccccc2)c(=S)s1)NC1CCS(=O)(=O)C1 (stereo not drawn)	.	.	-14	-1	2.1	.	2	0.7	3	-5
50	COc1ccc2cc(C(c3nnnn3Cc3ccccc3)N3CCCCCC3)c(=O)[nH]c2c1 (stereo not drawn)	.	.	4	0	2.1	.	-7	-0.1	-1	-11

# Next part:
No.	molecule	rRNA inh HTS RFP	rRNA inh HTS	T cruzi repl	Beta2AR agonist	LANA-H2B inh	rRNA inh HTS OD600	Beta cell apopt	A1 inh	Calb FLC	ALR inh
51	Cc1ccn2cc(-c3nonc3C)cc2c1	.	.	0	15	-1.7	.	4	-5.4	0	63
52	CN1CCN(/N=C/c2c3ccccc3c(Cl)c3ccccc23)CC1	14	1	29	38	-2.0	-7	2	-0.9	42	25
53	O=C(NC(=S)Nc1ccccc1[N+](=O)[O-])c1ccco1	0.5	4	-11	-29	-20	6	-8	-0.4	18	95*
54	CCc1noc(C)c1C(=O)N1CCN(c2cccc(C)c2C)CC1	-1.0	3	-12	-3	1.0	-9	-1	0.2	-10	0
55	CCC/C(O)=C1\C(=O)CC(c2ccccc2)CC1=NC (stereo not drawn)	.	.	13	-5	-0.8	.	-6	0.3	-16	-5
56	Cc1ccc(OCC(=O)NNC(=O)CSc2ncc(C#N)c(N)n2)cc1	.	.	7	3	-4.2	.	2	-0.2	-1	-7
57	CCN(C(=O)c1cnc(NC(C)C)cc1C(F)(F)F)c1ccc(Cl)cc1Cl	-6.2*	-23*	12	0	3.2	-18*	-7	0.6	15	-5
58	CCCCN(C(=O)CSc1nnc(Nc2ccc(C)c(C)c2)s1)c1c(N)n(Cc2ccccc2)c(=O)[nH]c1=O	.	.	14	-3	0.6	.	19	0.0	0	13
59	O=C(NCCCN1CCCC1)c1cccc(N2CCCC2=O)c1	.	.	7	3	0.7	.	-4	-0.4	-2	1
60	O=C(Cc1nnc(NC(=O)c2ccccc2)s1)N/N=C/c1ccco1	-1.3	1	2	-20	.	-6	-4	0.3	22	.
61	Cc1cc(NC(=O)CCc2ccc(-c3ccccc3)o2)no1	5.0	0	1	2	-8.7	6	-3	0.2	-6	3
62	CC1=C(C(=O)NC2CCC(C)CC2)C2(CCC(C)CC2)OC1=O (stereo not drawn)	-2.5	5	-20	4	-2.2	10	-3	0.4	21	-8
63	COc1ccc(C)cc1NC(=O)CN1CCN(S(=O)(=O)c2ccc(Cl)cc2)CC1	.	.	29	3	4.0	.	2	0.1	2	17
64	CCC1(c2ccc(Cl)cc2)NC(=S)N(c2ccc(C)c(C)c2)N1 (stereo not drawn)	0.9	8	2	1	0.9	3	-1	0.0	-15	97*
65	CCCCn1c(SCC(=O)Nc2nnc(CC)s2)nc2c1c(=O)n(C)c(=O)n2C	.	.	-23	5	-0.4	.	-4	-1.6	-1	-9
66	CSc1sc(C)cc1C1C(C#N)=C(N)N(c2cccnc2)C2=C1C(=O)CC(C)(C)C2 (stereo not drawn)	.	.	3	-9	-3.5	.	-3	0.9	-3	24
67	CC(=O)N1c2ccc(Cl)cc2C2C=CCC2C1c1cccc2ccccc12 (stereo not drawn)	.	.	.	7	3.2	.	2	0.8	.	-61
